VACV mCherry inh: inhibitors of vaccinia virus infection (mCherry reporter signal). Vaccinia virus mCherry reporter infection, fluorescence; about a quarter of the inactives have no number. Potency, µM (titrated, usually from 36.5 µM), for inactives: top-dose activity change, negative = inhibition, hits mostly inhibitors. 0.63% of 310,000 active; active = well fitted inhibition curve with a large enough effect; inconclusive = small, poorly fitted or top-dose-only effect; inactive = no such curve, though single readings can be large or run the other way; tested in A549 cells; also: nearly all actives have a fitted effect of over 35% in size; inactives centre near -10
Vaccinia Venus: vaccinia inhibition (Venus reporter) | Vaccinia virus Venus reporter expression, fluorescence | Potency, µM (series often up to 36.5 µM), for the others: top-dose activity change, negative = inhibition, most hits filed as inhibitors | 0.46% of 330,000 active | AID 720580; active means well fitted inhibition curve with a large enough effect; inconclusive means small, poorly fitted or top-dose-only effect; inactive means no such curve, though single readings can be large or run the other way; tested in A549 cells; also: nearly all actives have a fitted effect of over 30% in size; inactives centre near -10
An asterisk follows results filed as active; & = joins results of further samples. % is scaled to controls: 0 for no effect and ±100 for the full control effect; potency is read from the fitted curve at half-maximal effect.

Results for COc1ccc(N2CCN(C(=O)CSc3nc4nc(C)cc(C)n4n3)CC2)cc1 ?
VACV mCherry inh: -12.0%; Vaccinia Venus: -7.5%

What do the screens show for `COCCCNC(=O)CC1C[C@H](C(=O)N2CCOCC2)[C@@]2(C)c3[nH]c4ccccc4c3CCN2C1=O` (some centres not stated)?
VACV mCherry inh: -13.8%; Vaccinia Venus: -4.1%

What do the screens show for `Cc1nn2c(=O)cc(COC(=O)C(c3ccccc3)c3ccccc3)nc2s1`?
VACV mCherry inh: -1.3%; Vaccinia Venus: -3.2%

How did O=C(NCc1ccc2c(c1)CCN2C(=O)c1ccccc1)Nc1cc(F)ccc1F do in these assays?
VACV mCherry inh: -13.2%; Vaccinia Venus: -16.7%

How did C#C[C@]1(O)CC[C@H]2[C@@H]3CCC4=Cc5nc6nc7ccccc7n6cc5C[C@]4(C)[C@H]3CC[C@@]21C do in these assays?
VACV mCherry inh: inactive; Vaccinia Venus: -6.3%

How did Cc1ccc(NC(=O)COC(=O)CN2CSCC2=O)cc1C do in these assays?
VACV mCherry inh: -14.4%; Vaccinia Venus: -8.5%

What do the screens show for `COc1ccc(N2CCN(C(=S)Nc3cccc(C)c3)CC2)cc1`?
VACV mCherry inh: inactive; Vaccinia Venus: -9.7%

How did COc1ccc(N2C(=O)c3ccccc3NC2c2ccc(OC)c(Cn3nnc4ccccc43)c2)cc1 (configuration not stated) do in these assays?
VACV mCherry inh: -0.7%; Vaccinia Venus: -8.0%

How did CC(C)[C@@H](C(=O)N[C@@H](C(=O)O)c1ccccc1)N1C(=O)N2CCc3c([nH]c4ccccc34)[C@@]2(C)C1=O do in these assays?
VACV mCherry inh: -6.2%; Vaccinia Venus: -7.2%

Results for O=C1CC(N2CCN(Cc3ccc4c(c3)OCO4)CC2)C(=O)N1c1cccc(Cl)c1 (configuration not stated) ?
VACV mCherry inh: -16.2%; Vaccinia Venus: 0.2%

How did CCOC(=O)c1c(C)[nH]c(C)c1S(=O)(=O)NCC(=O)NCc1ccccc1Cl do in these assays?
VACV mCherry inh: -11.3%; Vaccinia Venus: 0.4%

How did O=[N+]([O-])c1cccc(C(=S)N2CCN(c3ccccc3F)CC2)c1 do in these assays?
VACV mCherry inh: -25.1%; Vaccinia Venus: -18.8%

How did Cc1ccccc1CSCCC(=O)NCCC1=CCCCC1 do in these assays?
VACV mCherry inh: inactive; Vaccinia Venus: -13.5%

Results for COc1ccc(NC(=O)NC[C@@H]2CC[C@@H](Cc3ccc(-c4ccccc4)cc3)O2)cc1 ?
VACV mCherry inh: inactive; Vaccinia Venus: -17.0%

Results for Cc1ccc(NC(=O)/C(=C\c2cccc([N+](=O)[O-])c2)NC(=O)c2cccs2)cc1 ?
VACV mCherry inh: -4.3%; Vaccinia Venus: -11.1%

What do the screens show for `C/C(CC1CC(C)(C)OC1=O)=N/Nc1nc(-c2ccccc2)cs1` (configuration not stated)?
VACV mCherry inh: -13.4%; Vaccinia Venus: -10.7%

Results for CCOC(=O)[C@H]1[C@H]2COc3ccccc3[C@@H]2N2C(=O)[C@@H](CO)NC(=O)[C@@]12C ?
VACV mCherry inh: inactive; Vaccinia Venus: -6.5%

Results for COc1cc(CN2CCC(C(=O)NC(c3ccc(-c4ccccc4)cc3)c3cnccn3)CC2)cc(OC)c1 (configuration not stated) ?
VACV mCherry inh: 6.3%; Vaccinia Venus: -15.0%

Results for CN(C)CCNC(=O)C(=O)Nc1ccc2c(c1)N(S(=O)(=O)c1cccs1)CCC2 ?
VACV mCherry inh: inactive; Vaccinia Venus: -28.5%

What do the screens show for `COC(=O)Nc1ccc(S(=O)(=O)N2CCC(C(=O)NCc3ccc4c(c3)OCO4)CC2)cc1`?
VACV mCherry inh: inactive; Vaccinia Venus: -1.5%

What do the screens show for `O=C(c1cnc2cc(-c3ccccc3)nn2c1)c1cc([N+](=O)[O-])ccc1O`?
VACV mCherry inh: -12.9%; Vaccinia Venus: -15.7%

What do the screens show for `Cc1nc2oc(C(=O)c3ccc(Br)cc3)c(N)c2c2c1COC(C)(C)C2`?
Vaccinia Venus: -26.0%

What do the screens show for `CCCCC(CCC(=O)Nc1ccn(-c2ccccc2)n1)C(=O)O` (configuration not stated)?
VACV mCherry inh: -7.8%; Vaccinia Venus: 0.9%

What do the screens show for `CS(=O)(=O)N1CCCC(C(=O)NCCCN2CCc3ccccc3C2)C1` (configuration not stated)?
VACV mCherry inh: inactive; Vaccinia Venus: -14.2%

Taken from above for reference:
Results for Cc1ccc(NC(=O)/C(=C\c2cccc([N+](=O)[O-])c2)NC(=O)c2cccs2)cc1 ?
VACV mCherry inh: -4.3%; Vaccinia Venus: -11.1%

What do the screens show for `C/C(CC1CC(C)(C)OC1=O)=N/Nc1nc(-c2ccccc2)cs1` (configuration not stated)?
VACV mCherry inh: -13.4%; Vaccinia Venus: -10.7%

Results for CCOC(=O)[C@H]1[C@H]2COc3ccccc3[C@@H]2N2C(=O)[C@@H](CO)NC(=O)[C@@]12C ?
VACV mCherry inh: inactive; Vaccinia Venus: -6.5%

Filtered by structure, the compounds so far with a thiophene ring, fused or not (two)
Results for Cc1ccc(NC(=O)/C(=C\c2cccc([N+](=O)[O-])c2)NC(=O)c2cccs2)cc1 ?
VACV mCherry inh: -4.3%; Vaccinia Venus: -11.1%

Results for CN(C)CCNC(=O)C(=O)Nc1ccc2c(c1)N(S(=O)(=O)c1cccs1)CCC2 ?
VACV mCherry inh: inactive; Vaccinia Venus: -28.5%

Next section:
Results for Cc1nn(C)c(C(=O)Nc2ccc(S(=O)(=O)NC34CC5CC(CC(C5)C3)C4)cc2)c1Br ?
VACV mCherry inh: 12.6µM*; Vaccinia Venus: inconclusive

Results for COc1ccc(NC(=S)Nc2ccc(N(C)C(C)=O)cc2)cc1 ?
VACV mCherry inh: 3.0%; Vaccinia Venus: 3.1%

Results for O=C1CCN(Cc2ccc([N+](=O)[O-])cc2)CCN1[C@H](CO)c1ccccc1 ?
VACV mCherry inh: -10.1%&-1.6%; Vaccinia Venus: -10.0%&-16.8%

What do the screens show for `COc1ccc2[nH]c(C(=O)O)c(CCN3C(=O)c4ccc(C(=O)O)cc4C3=O)c2c1`?
VACV mCherry inh: -6.6%; Vaccinia Venus: -1.2%

Results for CCN(C(=O)Nc1cccc2ccccc12)c1ccccc1 ?
VACV mCherry inh: -9.5%; Vaccinia Venus: -13.5%

Results for CCOC(=O)c1c(NCC2CCCO2)c2ccccc2[nH]c1=O (configuration not stated) ?
Vaccinia Venus: -18.2%

What do the screens show for `C/C=C/c1ccc(OCCOc2ccc(C=O)cc2)c(OC)c1`?
VACV mCherry inh: -5.4%; Vaccinia Venus: -4.7%

How did CCOCc1nnc(NC(=O)c2c(OC)cccc2OC)s1 do in these assays?
VACV mCherry inh: -3.3%; Vaccinia Venus: -18.7%

How did CCCNC(=O)C(=O)NCC(c1ccc2c(c1)OCO2)N1CCOCC1 (configuration not stated) do in these assays?
VACV mCherry inh: -5.5%; Vaccinia Venus: -1.2%

How did Cc1ccc(S(=O)(=O)NC(C)(C)CSc2ncccn2)cc1 do in these assays?
VACV mCherry inh: -1.1%; Vaccinia Venus: -3.5%

Results for CN(Cc1cccc2ncccc12)C(=O)CC1C(=O)NCCN1Cc1ccc(F)cc1 (configuration not stated) ?
VACV mCherry inh: inactive; Vaccinia Venus: -6.5%

Results for O=C(c1ccc(F)cc1)N1CCCC(c2nc(-c3ccncc3)no2)C1 (configuration not stated) ?
VACV mCherry inh: -1.8%; Vaccinia Venus: -7.5%

Results for COCCCNc1nc(N)c([N+](=O)[O-])c(NCC2CCCO2)n1 (configuration not stated) ?
VACV mCherry inh: -10.2%; Vaccinia Venus: -18.4%

Results for COc1ccc(CCn2c(-c3cc([N+](=O)[O-])cc([N+](=O)[O-])c3)nc3nc4ccccc4nc32)cc1 ?
VACV mCherry inh: -2.4%; Vaccinia Venus: -9.4%

How did COCCNC(=S)NNc1ccc(Cl)c(C(=O)O)c1 do in these assays?
VACV mCherry inh: -2.5%; Vaccinia Venus: 0.0%

How did O=C1c2ccccc2NC(c2cn[nH]c2-c2ccccc2)N1O (configuration not stated) do in these assays?
VACV mCherry inh: -24.4%; Vaccinia Venus: -20.1%

How did CC(Oc1ccc2c(-c3ccccc3)cc(=O)oc2c1)C(=O)NCC1CCC(C(=O)O)CC1 (configuration not stated) do in these assays?
VACV mCherry inh: -0.3%&24.9%; Vaccinia Venus: -0.6%&-0.1%

Results for Cc1cc(C)nc(N/N=C/C=C/c2ccccc2)n1 ?
VACV mCherry inh: -8.1%; Vaccinia Venus: -1.9%

How did CC1C(=O)N2CCCc3cc(S(=O)(=O)N4CCN(c5cccc(Cl)c5)CC4)cc1c32 (configuration not stated) do in these assays?
VACV mCherry inh: -0.5%; Vaccinia Venus: -17.0%

What do the screens show for `Cn1c(SCC(N)=O)nnc1C1CCN(C(=O)NCc2ccccc2)CC1`?
VACV mCherry inh: -12.0%; Vaccinia Venus: -5.3%

Results for COc1ccccc1C1CC(=O)Nc2cc3c(cc21)OCCO3 (configuration not stated) ?
VACV mCherry inh: inconclusive; Vaccinia Venus: inconclusive

What do the screens show for `Cc1nn(C)cc1S(=O)(=O)Nc1ccccc1Br`?
VACV mCherry inh: inactive; Vaccinia Venus: -8.5%

What do the screens show for `Cc1c(C(=O)OCC[N+]2(C)CCCCC2)oc2ccccc12`?
VACV mCherry inh: inactive; Vaccinia Venus: -11.8%

How did O=C(O)C(c1ccccc1)C1(O)CCCC1 (configuration not stated) do in these assays?
Vaccinia Venus: -4.3%

Results for Cc1nn(CC(=O)NCCc2ccc(Cl)cc2Cl)c(C)c1[N+](=O)[O-] ?
VACV mCherry inh: -8.8%; Vaccinia Venus: -21.5%

What do the screens show for `Cc1cc(N2CCOCC2)n2ncc(-c3ccccc3Cl)c2n1`?
VACV mCherry inh: -13.9%; Vaccinia Venus: -17.0%

Results for O=C(Cn1cnc2ccccc2c1=O)Nc1ccc(N2CCOCC2)cc1 ?
VACV mCherry inh: -10.4%; Vaccinia Venus: -14.4%

Results for CC1=C(C(=O)Nc2ccc(C)cc2C)C(c2ccccc2)n2nc(SCC(=O)c3ccc(C)cc3)nc2N1 (configuration not stated) ?
VACV mCherry inh: -15.2%; Vaccinia Venus: -5.2%

What do the screens show for `O=C(CCl)Nc1cn(-c2ccccc2)nc1-c1ccc(F)cc1`?
VACV mCherry inh: inconclusive; Vaccinia Venus: -20.2%

Results for Cc1cccc(NC(=O)c2ccc(NCCO)c([N+](=O)[O-])c2)n1 ?
VACV mCherry inh: -24.8%; Vaccinia Venus: -2.6%

How did CCOC(=O)c1sc(NC(=O)CCCCl)nc1C do in these assays?
VACV mCherry inh: -12.7%; Vaccinia Venus: -1.4%

How did CCN(CC)c1ccc(NC(=O)COc2ccc(C#N)cc2)cc1S(=O)(=O)Nc1ccc(OC)cc1 do in these assays?
VACV mCherry inh: -12.3%; Vaccinia Venus: -2.2%

Results for c1ccc(COc2ccc(OCCCN3CCCC3)cc2)cc1 ?
VACV mCherry inh: -3.7%; Vaccinia Venus: -15.8%

What do the screens show for `CCOC1CCCc2oc(-c3ccc(N(C)C)cc3)c(C(=O)OC)c21` (configuration not stated)?
VACV mCherry inh: -19.5%; Vaccinia Venus: -4.7%

How did Cc1ccc(CN2CCN(CCC(C)C)C(CCO)C2)s1 (configuration not stated) do in these assays?
VACV mCherry inh: -6.8%; Vaccinia Venus: 0.6%

How did Cc1ccc(F)cc1NC(=O)Cn1c(C)cc(C)c(C#N)c1=O do in these assays?
VACV mCherry inh: -3.0%; Vaccinia Venus: 5.6%

What do the screens show for `COc1cc2c3c(c1OC)C(=O)CC3CCCC2` (configuration not stated)?
VACV mCherry inh: inactive; Vaccinia Venus: -14.4%

What do the screens show for `CN(C)S(=O)(=O)c1ccc(S(=O)(=O)N(CC(=O)Nc2ccccc2)CC2CCCO2)cc1` (configuration not stated)?
Vaccinia Venus: -0.9%

Results for O=C(Nc1ccc(C(=O)O)cc1)/C(=C\C=C\c1ccccc1)NC(=O)c1cccc(Br)c1 ?
VACV mCherry inh: -6.2%; Vaccinia Venus: 0.2%

How did CC[N+](C)(CC)CCC(c1ccccc1)C1CCCCC1 (configuration not stated) do in these assays?
VACV mCherry inh: inactive; Vaccinia Venus: -17.2%

How did O=C(Cn1ncc2c3ccccc3n(Cc3ccccc3F)c2c1=O)NCc1ccccc1Cl do in these assays?
VACV mCherry inh: -22.3%; Vaccinia Venus: -22.7%

What do the screens show for `CC1(C)Cc2ccccc2-c2nnc(-c3cccc(O)c3)n21`?
Vaccinia Venus: -4.2%

How did Cn1c(=O)n(CC(=O)OCc2ccccc2)c(=O)c2c1nc1n2CCCN1C1CCCCC1 do in these assays?
Vaccinia Venus: -17.5%

What do the screens show for `Cc1ccc(C)c(NC(=O)CS(=O)(=O)c2cn(C)c3ccccc23)c1`?
VACV mCherry inh: -10.0%; Vaccinia Venus: -5.1%

What do the screens show for `COc1cccc(-n2c(=O)c3cc(OC)c(OC)cc3n(CC(=O)Nc3ccccc3)c2=O)c1`?
VACV mCherry inh: -14.2%; Vaccinia Venus: -6.9%

Results for COc1cc(/C=N/NC(=O)CSc2nc3ccccc3n2C)cc(OC)c1OC ?
VACV mCherry inh: inactive; Vaccinia Venus: -10.1%

Results for NC(=O)c1ccc(NCCc2cccs2)cc1 ?
VACV mCherry inh: 17.5%; Vaccinia Venus: 1.5%

Results for O=C(NCCCN1CCOCC1)c1ccc2c(=O)n(Cc3ccccc3)c(=S)[nH]c2c1 ?
VACV mCherry inh: -18.0%; Vaccinia Venus: 0.9%

How did CCCCn1c(CN2CCN(c3cccc(Cl)c3)CC2)nc2c1c(=O)[nH]c(=O)n2C do in these assays?
VACV mCherry inh: -15.5%; Vaccinia Venus: -25.5%

What do the screens show for `COc1ccc(C(CCN(Cc2ccc(OC)c(OC)c2)C(=O)CCl)c2ccccc2)cc1` (configuration not stated)?
VACV mCherry inh: -10.2%; Vaccinia Venus: inconclusive

Bioassay records as filed in PubChem BioAssay.
